# hNpr1 antagonist – human Npr1 receptor antagonism | P16066 | HEK293 hNpr1 GloSensor cGMP, ANP-stimulated luminescence | Potency, µM (series often up to 46.3 µM), for the others: at the highest dose activity change, negative = inhibition, usual class: inhibitors | 76,000 tested, 1.6% active | AID 1347048; active = well fitted inhibition curve with a large enough effect; inconclusive = small, poorly fitted or top-dose-only effect; inactive = no such curve, though single readings can be large or run the other way;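 further: nearly all actives have a fitted effect of over 60% in size; nearly all hits also lower the signal before the agonist is added; a reference antagonist and vehicle were the controls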
# Target sequence (P16066 whole entry, looked up): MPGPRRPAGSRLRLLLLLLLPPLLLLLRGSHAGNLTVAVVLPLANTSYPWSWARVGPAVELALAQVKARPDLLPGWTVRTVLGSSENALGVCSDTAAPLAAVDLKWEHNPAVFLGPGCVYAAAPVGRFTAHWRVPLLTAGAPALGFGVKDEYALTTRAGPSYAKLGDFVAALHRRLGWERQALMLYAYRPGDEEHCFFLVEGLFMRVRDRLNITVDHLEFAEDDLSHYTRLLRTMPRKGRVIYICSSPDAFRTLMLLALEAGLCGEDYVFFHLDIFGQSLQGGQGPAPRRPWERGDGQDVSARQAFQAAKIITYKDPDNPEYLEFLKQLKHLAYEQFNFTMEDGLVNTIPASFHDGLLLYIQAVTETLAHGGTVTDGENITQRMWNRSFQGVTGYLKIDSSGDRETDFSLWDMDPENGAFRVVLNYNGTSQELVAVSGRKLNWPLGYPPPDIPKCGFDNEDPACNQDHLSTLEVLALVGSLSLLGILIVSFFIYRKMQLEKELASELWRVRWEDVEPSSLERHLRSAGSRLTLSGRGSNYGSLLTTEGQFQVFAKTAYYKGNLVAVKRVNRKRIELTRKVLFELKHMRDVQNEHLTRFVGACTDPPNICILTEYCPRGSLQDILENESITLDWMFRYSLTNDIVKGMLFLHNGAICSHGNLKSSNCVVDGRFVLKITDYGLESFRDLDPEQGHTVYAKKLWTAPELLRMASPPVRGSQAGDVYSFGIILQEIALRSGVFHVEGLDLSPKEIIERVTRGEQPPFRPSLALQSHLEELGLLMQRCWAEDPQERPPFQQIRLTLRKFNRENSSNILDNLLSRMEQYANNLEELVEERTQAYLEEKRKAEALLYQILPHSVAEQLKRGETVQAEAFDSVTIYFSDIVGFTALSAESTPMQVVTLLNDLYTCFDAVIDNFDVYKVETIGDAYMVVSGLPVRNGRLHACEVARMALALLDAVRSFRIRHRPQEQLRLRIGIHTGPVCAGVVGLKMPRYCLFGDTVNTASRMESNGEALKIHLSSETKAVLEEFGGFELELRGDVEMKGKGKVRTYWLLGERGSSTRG
#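 Compound pre-incubated 30 min at room temperature on GloSensor-loaded HEK293 cells stably carrying hNpr1 and the pGS-40F cGMP biosensor. Stimulation uses hNppA at 0.1 nM final; luminescence is taken at baseline and 20 min post-agonist.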
# * = called active by the depositor; ? = inconclusive; [ ] = another dose, or the depositor's remark. On the % scale 0 is the no-effect control and ±100 the full control effect; potency means the concentration at half of the fitted maximal effect. Some of the compounds tested (hit frequency here may not be typical).
SMILES,hNpr1 antagonist
COc1ccccc1NC(=O)N1CCC(N2C(=O)C3(CCCCC3)C2c2ccncc2)CC1 (stereo not drawn),9%
Cn1cc(CNS(=O)(=O)c2cccc(C(=O)NCC3CCOC3)c2)cn1 (stereo not drawn),1%
COc1ccccc1N1CCN(CC[C@@H]2CC[C@H](O)[C@@H](C(=O)NC(C)C)O2)CC1,9%[70.6 µM]
CCCN1CC2(CCN(Cc3cn[nH]c3C(=O)O)CC2)CC1C(=O)O (stereo not drawn),-2%
COc1ccc(OC)c(CN2C[C@@H]3C(=O)N(CCCN4CCCC4=O)C(=O)[C@@H]3C2)c1,0%
COCCN1C(=O)CO[C@H]2CN(C(=O)c3ccc(F)cc3)C[C@H]21,1%[70.6 µM]
Nc1cc(N2CCC(Oc3ccc4c(c3)OCO4)(C(=O)O)CC2)ncn1,0%
O=C(Nc1cccc(F)c1)N1Cc2[nH]cnc2C[C@H]1c1nc(-c2ccc3c(c2)OCO3)no1,-24%
Cc1ccc(NC(=O)c2cc3n(n2)CC(c2ccc4c(c2)OCO4)OC3)cc1 (stereo not drawn),?
COc1ccc(C(NC(=O)c2cccc(OC(F)F)c2)C2CC(O)C2)cn1 (stereo not drawn),-8%
CS(=O)(=O)N[C@H]1C[C@H]2C(=O)Nc3ccc(-c4cccs4)cc3C(=O)N2C1,2%[70.6 µM]
CNC(=O)c1cc(-c2ccnc(NC(C)=O)c2)cc2c1OCCN2Cc1cccnc1,2%[70.6 µM]
CNC(=O)[C@@H]1C[C@H](Oc2ccccc2)CN1C(=O)c1cc(C)n(CCCOC)c1C,-4%
CN(CCC(O)c1ccccc1)c1nccc(-c2cccnc2)n1 (stereo not drawn),4%
O=C(Cn1nc2c(cc1=O)CCCC2)N[C@@H](Cc1ccccc1)C(=O)O,1%
COc1ccc(NC(=O)c2ccc(CN3C(=O)NC4(CCOCC4)C3=O)cc2)c(OC)c1,8%
CC(C)CNC(=O)C1COC2(CCN(C(=O)CC(C)C)CC2)N1C(=O)c1ccco1 (stereo not drawn),-1%
Cc1ccncc1C(=O)N1CCC(c2noc(-c3cnccn3)n2)C1 (stereo not drawn),7%
CCc1ccc(C(=O)NC2CCN(c3cc(-c4ccc(OC)cc4)[nH]n3)CC2)cc1,?
CCOc1ccc(NC(=O)N2CCCC(Cn3c(C4CC4)nc4cccnc43)C2)cc1 (stereo not drawn),-1%
Cc1cc(C(=O)N2CCCC(Cc3noc(-c4ccccn4)n3)C2)nn1C (stereo not drawn),10%
Cc1noc([C@@H]2CN(C(=O)CN3CCCCCC3)C[C@H]2CO)n1,-1%
CC(C)c1noc(C2CCCN2S(=O)(=O)N2CCCCCC2)n1 (stereo not drawn),0%
NC(=O)[C@H](CC1CCCCC1)NC(=O)[C@@H]1CN(C(=O)c2cccnc2)CCN1C(=O)C1CCNCC1,2%
CC(C)n1cc(-c2nc3cc(S(=O)(=O)N4CCCC4)ccc3n2C)cn1,1%

# Among those listed so far, 4 contain sulfur.
SMILES,hNpr1 antagonist
Cn1cc(CNS(=O)(=O)c2cccc(C(=O)NCC3CCOC3)c2)cn1 (stereo not drawn),1%
CS(=O)(=O)N[C@H]1C[C@H]2C(=O)Nc3ccc(-c4cccs4)cc3C(=O)N2C1,2%[70.6 µM]
CC(C)c1noc(C2CCCN2S(=O)(=O)N2CCCCCC2)n1 (stereo not drawn),0%
CC(C)n1cc(-c2nc3cc(S(=O)(=O)N4CCCC4)ccc3n2C)cn1,1%

# Gathered by group: the entries above with fluorine (3)
SMILES,hNpr1 antagonist
COCCN1C(=O)CO[C@H]2CN(C(=O)c3ccc(F)cc3)C[C@H]21,1%[70.6 µM]
O=C(Nc1cccc(F)c1)N1Cc2[nH]cnc2C[C@H]1c1nc(-c2ccc3c(c2)OCO3)no1,-24%
COc1ccc(C(NC(=O)c2cccc(OC(F)F)c2)C2CC(O)C2)cn1 (stereo not drawn),-8%

# The list goes on.
SMILES,hNpr1 antagonist
O=C1Nc2ccc(-c3ccc(Cl)cc3)cc2C(=O)N2CCN(C(=O)c3cccc(F)c3)C[C@H]12,-3%
CC(=O)Nc1ccc(S(=O)(=O)N[C@H]2CO[C@H]3[C@@H]2OC[C@@H]3Nc2nccc(-c3cccc(F)c3)n2)cc1,11µM*
CC[C@@]1(O)CCN(C(=O)CCc2nc(-c3ccco3)no2)C[C@H]1O,10%
O=c1cc(CN2CCCC(c3nccn3Cc3ccccc3)C2)[nH]c(=O)[nH]1 (stereo not drawn),7%
CC1(CCCCc2ccccc2)COc2ccc(C(=O)NCCc3cnc[nH]3)cc2N1 (stereo not drawn),-4%[70.6 µM]
C[S+](=O)([O-])Nc1cccc(-c2nc(N3CCOCC3)cc3c2CN(CC2CC2)C3=O)c1,-2%
Cc1cc(C)nc(SCc2ccc(-c3nc(C4CCOC4)no3)o2)n1 (stereo not drawn),?
COc1ccc2ccccc2c1CN1CCC2(CC1)[C@H](O)C[C@@H]2OCCN,0%
Cc1cccc(C)c1NC(=O)Cn1nc2c(cc1=O)CCCCC2,0%
O=C(Nc1ccc2nnc(-c3ccc(C(=O)N4CCCCC4)cc3)n2c1)C1CCC1,-6%
COCCn1c(C)cc(C(=O)N[C@@H]2CN(C)C[C@H]2CN(C)C)c1C,8%
Clc1cccc(-c2cnc([C@@H]3COCCN3Cc3cnc4ccccc4c3)[nH]2)c1,28µM*
O=C(C1Cn2cccc2C(=O)N1Cc1ccccc1)N1CCOCC1 (stereo not drawn),-1%
CN1CC[C@H](c2nc3ccccc3[nH]2)C1,1%[122 µM]
COc1cc2c(cc1OC)C(CNC(=O)c1cccc(F)c1)N(C(=O)Nc1ccc(C)cc1)CC2 (stereo not drawn),4%
O=C(O)CSCC(=O)N[C@H]1CO[C@H]2[C@@H]1OC[C@@H]2Nc1nccc(-c2cccc(F)c2)n1,0%
OCC1CN(Cc2cccnc2)CCC12CCN(Cc1cccc(O)c1)CC2 (stereo not drawn),4%
COCCN1CCC(N2CCN(C(=O)c3ccc(Cl)s3)CC2)C1=O (stereo not drawn),1%
O=S1(=O)CCN(c2cccc(-c3nc(C4CCOC4)no3)c2)CC1 (stereo not drawn),5%
CC(=O)N1CCC(C(=O)N2CCn3nc(Cc4ccccc4)cc3C2)CC1,1%
CC1CCC2(CC1)NC(=O)N(CC(=O)Nc1ccc(C(F)(F)F)cc1)C2=O (stereo not drawn),1%
CC(CN1CCCC1)CN(C)c1nc(CCN)nc2ccccc12 (stereo not drawn),3%
COc1ccc(Cc2ncc3c(n2)CN(C(=O)c2cc(C)c(C)cc2C)C3)cc1,-13%
c1cnc2nc([C@H]3CCN(C4CCCCC4)C3)[nH]c2c1,4%[70.6 µM]
OCc1ccc(-c2cc(-c3cccnc3)c3cncn3c2)cc1,-5%[70.6 µM]

# Structural class, the compounds so far with a COOH group.
SMILES,hNpr1 antagonist
CCCN1CC2(CCN(Cc3cn[nH]c3C(=O)O)CC2)CC1C(=O)O (stereo not drawn),-2%
Nc1cc(N2CCC(Oc3ccc4c(c3)OCO4)(C(=O)O)CC2)ncn1,0%
O=C(Cn1nc2c(cc1=O)CCCC2)N[C@@H](Cc1ccccc1)C(=O)O,1%
O=C(O)CSCC(=O)N[C@H]1CO[C@H]2[C@@H]1OC[C@@H]2Nc1nccc(-c2cccc(F)c2)n1,0%

# New compounds follow
SMILES,hNpr1 antagonist
O=c1[nH]c(C2CCN(Cc3ccccc3C(F)(F)F)CC2)nn1Cc1ccccc1,13%
O=C(NC1CCN(c2cc(-c3cccs3)[nH]n2)CC1)c1ccc(Cl)cc1,-17%
O=C(c1cc(-c2ccccc2)n[nH]1)N1CCC2(CC1)N=C(c1ccccc1)NO2,-16%
CCC(C)C(=O)N1CCc2c(c(C(=O)O)nn2CCCc2ccccc2)C1 (stereo not drawn),0%
COCc1nc(C2CCCN(C(=O)CC(C)C)C2)no1 (stereo not drawn),6%
CC(C)c1ccc(C(=O)N2CCC(OC3CCN(C)CC3)CC2)cc1,-12%
O=S(=O)(c1ccccc1)N1CCn2c(nnc2[C@@H]2C[C@@H](O)CN2Cc2cccnc2)C1,2%
CC(C)C(=O)N1CCC2(CCNC(=O)CC2)CC1,1%
CC(C)CCN1CC2(CCCN(C(=O)c3cc(C(F)(F)F)[nH]n3)C2)CCC1=O (stereo not drawn),-2%
O=C(c1cccnc1OC1CCN(S(=O)(=O)c2ccccc2)C1)N1CCOCC1 (stereo not drawn),1%
COc1cccc2c1ccn2CCNC(=O)Cn1nc2c(cc1=O)CCCC2,0%
COc1ccc(-c2ccc3c(c2)C(=O)N2CC[C@H](NC(=O)CSC)[C@H]2C(=O)N3)c(OC)c1,-1%
CCN(Cc1c(F)cccc1Cl)C(=O)CCc1c(C)nn(C)c1C,?
COc1ccc(N2CC3(COCC2=O)CN(c2ccc(C(F)(F)F)cn2)C3)cc1,-2%[70.6 µM]
CCn1ncc(CN2CCCCCNC(=O)CC2c2ccccc2)c1C (stereo not drawn),0%
COc1ccc(NC(=O)N2CC3CC(C2)[C@H]2CCCC(=O)N2C3)cc1OC (stereo partly drawn),-2%
Cc1cc(C)n(CCC(=O)N[C@@H]2CN(c3ccncn3)C[C@H]2CN(C)C)n1,11%
Cc1ccc(NC2=N[C@H]3[C@@H](O)[C@H](O)C[C@H](C(=O)N(C)Cc4ccccc4)[C@H]3S2)cc1,-3%[70.6 µM]
Cc1noc([C@@H]2CC(F)(F)CN2C(=O)c2cocn2)n1,0%
Cc1ccc(C(=O)NC2CCN(c3cc(-c4ccc(F)cc4)[nH]n3)CC2)cc1,-9%
CN1N=C(C(=O)N2CCOC(Cc3cccc4ccccc34)C2)CCC1=O (stereo not drawn),3%
C=CCN(C)C(=O)C[C@@H]1c2nc(NC(=O)c3cccc(F)c3)sc2C[C@@H]2[C@](C)(CO)[C@H](O)CC[C@]21C,-6%
CN(CC1CCOC1)C(=O)c1ccco1 (stereo not drawn),2%
Cn1cc(CN2CCN(Cc3ccccc3)CC2)ccc1=O,2%
CCN(CCOC)C(=O)c1coc(COc2ccc3sc(C)nc3c2)n1,-1%
# (more compounds)
SMILES,hNpr1 antagonist
O=C(N[C@H]1C[C@H]2C(=O)Nc3cc(Cl)ccc3C(=O)N2C1)c1ccccc1,3%[70.6 µM]
Cc1cc(N2CCN(C(=O)C(c3ccc(F)cc3)N(C)C)CC2)cc(C)n1 (stereo not drawn),-2%
COc1ccc(CN2C(=O)CO[C@H](c3ccc(NC(=O)c4ccc(F)cc4)cc3)[C@H]2CO)cc1,3%
O=[S+]1([O-])NCC2(CCN(Cc3ccc(OC(F)(F)F)cc3)CC2)Nc2ccccc21,1%
O=C(NCc1ccc(F)cc1)N1CCC2(CC1)CC(N1CCCCC1)CCO2 (stereo not drawn),15%
CCn1ccc(C(=O)N2CCC(Oc3ccccc3-c3nc(C)no3)C2)n1 (stereo not drawn),4%
O=C(C1CCCO1)N1CCc2c(n(Cc3ccccc3)n(-c3ccccc3)c2=O)C1 (stereo not drawn),2%[70.6 µM]
O=C(NCCc1noc(-c2ccncc2)n1)c1c2c(nc3ccccc13)CCCC2,-2%
CCOc1ccc(C(=O)Nc2ccc3c(c2)CCC(=O)N3CC(C)C)cc1,?
CCOc1cc(C(=O)N2CCCN(c3cc(-c4ccccc4)[nH]n3)CC2)cc(OCC)c1OCC,-3%
CNC(=O)[C@@H](C1CC1)N1CCC[C@H]1C(=O)N1CCC(C)CC1,5%[70.6 µM]
COCCNC(=O)c1ccc2c(c1)N(C)C(CC(=O)NCC(F)(F)F)CO2 (stereo not drawn),1%
CC1CCC2(CC1)NC(=O)N(CC(=O)NCc1ccc3c(c1)OCO3)C2=O (stereo not drawn),4%
Cc1ccc(CNC(=O)C2CCCCC(=O)N2C)o1 (stereo not drawn),-13%
O=C(NC1CCCCC1)[C@@H]1C[C@@H](O)CN1C1CCN(C(=O)c2ccsc2)CC1,3%
COc1ccc(CNC(=O)c2ccc(-c3ccc(N4CCSCC4)nc3)cc2)cc1,-1%
O=C1OC[C@@H]2CCN(Cc3cccnc3)Cc3ccc(F)cc3N12,4%[70.6 µM]
C=CCNC(=O)C1CCN(C(=O)N2CC3CC(C2)[C@H]2CCCC(=O)N2C3)CC1 (stereo partly drawn),1%
CCCCSCc1cc(C(=O)N2Cc3nnc(C)n3C(C)C2)oc1C (stereo not drawn),-2%
Cc1ccc(CN2CCC(CNC(=O)NC(C)C)C2)cc1C (stereo not drawn),6%
O=C(c1ccncc1)N1CCC(CCOc2ccccc2)C1 (stereo not drawn),0%
COc1ccc(CN2CC[C@H]3CN(C)CC[C@H]3CC2=O)cc1,4%[70.6 µM]
COc1cc(Cl)ccc1C(=O)N1CCC(N2CC3CC(C2)[C@H]2CCCC(=O)N2C3)CC1 (stereo partly drawn),-3%
COc1cccc(CN2C(=O)CCCCC2C(=O)N(C)CCc2c(C)nn(C)c2C)c1 (stereo not drawn),-9%
Fc1ccc(CN2CC[C@H](c3nc4ccccc4o3)C2)cc1F,-2%[70.6 µM]
CNC(=O)[C@@H]1CN(C(=O)c2nccc3ccccc23)C[C@H]1c1nc(COC)no1,0%
COc1cc(C(=O)NC2CCN(c3cc(-c4ccc(F)cc4)[nH]n3)C2)cc(OC)c1OC (stereo not drawn),-13%
COCCn1c(C)cnc1CC1CCN(C(=O)c2ccc(C)s2)CC1,-13%
CC(C)NC(=O)NCC1Cn2cccc2C(=O)N1Cc1ccccc1 (stereo not drawn),-17%
CCN(CC)C(=O)Cn1cc(C(=O)N2CCN(c3nc4ccccc4s3)CC2)nn1,5%

# Screening data: PubChem, National Center for Advancing Translational Sciences (NCATS)
